BJeLR viability = kills HRASV12-expressing BJeLR cells; 0.17% of 300,000 active; BJeLR (HRASV12) viability, CellTiter-Glo ATP luminescence, 48 h; reference of the scale not given here; inhibition, % (test concentration not listed);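 active = replicate mean above 50%; inconclusive = above 50% but judged a plate artefact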;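 note: 50 nL library stock added to about 25 µL; numbers are from one replicate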
Sa ugtP lethal = compounds lethal to S. aureus RN4220 ugtP deletion mutant; growth inhibition, % (concentration not given with the values); 0.54% of 330,000 active; OD600 growth, 16 h; some inactives read as strong as hits; AID 1259309;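 active = z-score under -3 and OD600 up to 0.15 on both plates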;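 note: plate controls were untreated wells for no effect and antibiotic for full effect; wells of about 80 µL received 100 nL stock; the first replicate is given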
Mtb hypoxia rep = inhibitors of hypoxia-regulated fluorescent reporter in Mycobacterium tuberculosis. AID 1159583. M. tuberculosis hypoxia-regulated fluorescent reporter, fluorescence. fluorescence inhibition, % (no concentration beside the values). 0.1% of 300,000 active;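 active = 35 to 45% if threefold the growth effect, above 45% if 1.5-fold the growth effect; inactive = the rest, general growth blockers included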;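 note: wells of about 50 µL received 100 nL stock; 0% = vehicle wells and 100% = reference inhibitor wells; whole bacteria with a GFP reporter of the hypoxia response; strong numbers were not always called active; many hits fall short of the cut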
Sa RN4220 lethal = kills Staphylococcus aureus RN4220. S. aureus RN4220 growth, OD600, 16 h. 0.33% of 330,000 active. inhibition, % (no concentration beside the values);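 active = z-score of -3 or lower and OD600 up to 0.18 on both plates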;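 note: plate controls were untreated cells for no effect and reference antibiotic for full effect; stock transfer was 100 nL into about 80 µL; one replicate is shown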
PrP 5UTR inh = suppresses PrP 5' UTR mRNA reporter expression; inhibition, % (test concentration not listed); cell-based PrP 5' UTR mRNA reporter, plate reader; AID 488862; 0.35% of 340,000 active;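 active = every replicate at 50% or more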;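 note: 0 = median of the neutral control wells; tested in H4 reporter cells; numbers are from one replicate; inactives centre near -14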
Bead autofluor = counter-screen for toxin protease inhibitors: compound fluorescence; compound autofluorescence counterscreen, microsphere flow cytometry; stronger effect = higher value; fluorescence intensity (no concentration beside the values); 3.1% of 360,000 active;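 active = at least 3 SD above the mean of all compounds, about 16000 in these data; inconclusive = too few beads counted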;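 note: 100 nL of 1 mM stock went into each well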
Mtb hypoxia rep growth = also measured in Mtb hypoxia rep; calls as there; growth inhibition, %; measured here: M. tuberculosis growth (absorbance);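 0% = vehicle and 100% = reference antibiotic; read after six days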
Active calls of the source: *; ? = inconclusive; / = not tested or not shown.

SMILES | BJeLR viability | Sa ugtP lethal | Mtb hypoxia rep | Mtb hypoxia rep growth | Sa RN4220 lethal | PrP 5UTR inh | Bead autofluor
CC(C)(C)CN1CCNC(=O)C1CC(=O)NCCc1ccccc1F (stereo not given) | -2 | 0 | 3 | 8 | 6.4 | -27 | 4179
CCOc1ccc(NC(=O)CN(C)S(=O)(=O)c2cccs2)cc1 | 4 | 5 | / | / | -1.3 | -48 | 5487
O=C(c1cnccn1)N(Cc1cccs1)C1(C(=O)NC2CCCCC2)CCCCC1 | 17 | -8 | 1 | 4 | -4.7 | -30 | 2102
CCNc1nc(NC(C)C)nc(N(C#N)C(C)C(=O)N(CC)CC)n1 (stereo not given) | -2 | 8 | -1 | 5 | 4.3 | / | ?
Cc1cc(C=C2C(=O)N(C)C(=S)N(C)C2=O)c(C)n1C1CCCCC1 | 0 | -6 | 10 | 6 | -11 | -12 | 3655
Nn1c(SCC(=O)Nc2ccccc2C(F)(F)F)nncc1=O | -14 | 3 | 5 | 3 | 2.7 | -7 | 5635
CN1C(=O)C(=Cc2ccc(Sc3ccccc3)o2)C(=O)N(C)C1=O | -5 | 3 | 4 | 2 | 4.3 | -6 | 2352
Cc1cc(C)cc(OCC(=O)NNC(=O)c2cc3ccccc3oc2=O)c1 | / | 1 | -76 | -8 | 3.6 | -35 | 9486
CC1(C)Cc2cccc(OCC(=O)Nc3ccc(S(N)(=O)=O)cc3)c2O1 | -5 | 3 | -1 | -4 | 5.8 | -8 | /
O=C(NCc1ccccc1)C(c1cccs1)N(Cc1cccs1)C(=O)c1cnccn1 (stereo not given) | -2 | 1 | 19 | 4 | 4.6 | -31 | 10155
CCOCCCN1CN(S(=O)(=O)c2ccc(Cl)cc2)c2nc3ccccc3nc21 | 3 | -9 | 7 | 6 | 0.7 | -5 | 3377
Cc1cccc(CC2SC(=Nc3ccccn3)NC2=O)c1 (stereo not given) | / | 6 | -6 | -2 | 7.5 | / | /
Cc1c(C(=O)NC(=S)Nc2ccccc2N2CCCC2)cccc1[N+](=O)[O-] | 8 | 96* | 1 | 3 | 9.5 | -3 | 2363
Cc1sc2nc(SCC(=O)N(CCO)CCO)n(C3CCCCC3)c(=O)c2c1C | -8 | -2 | 16 | 7 | -13 | -10 | 2996
CCCN(Cc1cc2cc(C)ccc2[nH]c1=O)C(=O)c1cccc(OC)c1 | 8 | -1 | / | / | -2.1 | 8 | 3593
CCCCCn1c(CCNC(=O)c2cccs2)nc2ccccc21 | -2 | -1 | 11 | 15 | 3.5 | -32 | 8813
CCNc1nc(NCC)nc(Oc2ccc(OCC)nn2)n1 | -2 | 15 | -2 | 2 | 4.9 | -22 | 7039
CC(=O)Nc1ccc(NC(=O)C(C)Sc2nc3ccccc3c(=O)n2CC2CCCO2)cc1 (stereo not given) | 2 | 5 | 5 | 2 | 2.7 | -15 | 6066
CCC(CO)Oc1cc(NCc2ccc(F)cc2)c2ncn(C(C)C)c2c1 (stereo not given) | / | 6 | -1 | 8 | 8.6 | -17 | 3039
O=C(Nc1cc2c3c(c1)CC(=O)N3CCC2)c1ccco1 | 7 | 1 | 6 | -8 | 1.4 | -18 | 5626
C=C(CCO)C1=CCN(S(=O)C(C)(C)C)[C@H]1CCO (stereo not given in full) | / | 10 | -4 | -10 | 2.7 | 31 | 2889
COC(=O)C1=C(c2ccc(OCc3ccccc3)cc2)CC2CCC1N2C(=O)NCc1ccc(OC)c(OC)c1 (stereo not given) | / | -16 | 0 | 7 | -8.8 | / | /
COc1ccc(N(Cc2cc(=O)[nH]c3ccccc23)C(=O)CCl)cc1 | 49 | / | / | / | / | 4 | 3658
COCCCNC(=O)c1cn(C)c(=O)c2c1c1ccccc1n2C | 7 | 6 | 4 | 3 | 0.7 | -1 | 3680
COc1ccc(Cl)cc1S(=O)(=O)NC(C)C(=O)NCc1ccccn1 (stereo not given) | -4 | 0 | 12 | 2 | 4.8 | -52 | 4062
O=C(CN1C(=O)S/C(=C\c2ccc(Cl)cc2)C1=O)NC1C=CS(=O)(=O)C1 (stereo not given) | 14 | 4 | 8 | 14 | 3.9 | -10 | 5276
COc1cccc(C(=O)Nc2ccccc2C(=O)NCC2CCCO2)c1 (stereo not given) | -8 | 1 | 2 | 9 | -2.5 | -23 | 5340
COc1ccccc1NC(=O)Cn1cnc2c(nnn2-c2ccc(C)cc2)c1=O | -2 | 5 | 1 | -5 | 4.2 | -30 | 2611
Cc1ccccc1OCC(O)Cn1c(Br)nc2c1c(=O)[nH]c(=O)n2C (stereo not given) | -3 | 1 | -5 | 0 | -0.2 | -14 | 3078
COc1ccc2nc(C)cc(N/N=C/c3ccc(F)cc3)c2c1 | 93* | / | / | / | / | 15 | 4678
Cc1c(CC=C(Cl)Cl)c(=O)[nH]c2c(C)cccc12 | 1 | 3 | -1 | 4 | 2.8 | -11 | 2077
CCCC(=O)N(Cc1cc(=O)[nH]c2ccccc12)c1ccccc1 | -5 | -3 | -2 | -3 | 6.3 | -25 | 3182
CC(=NNC(=O)C1CCCC1)c1ccc(C(C)C)cc1 | / | 17 | 11 | 3 | 1.8 | / | /
CCC1(c2ccccc2)NC(=O)N(CC(=O)N(C)CC(=O)Nc2c(C)cccc2C)C1=O (stereo not given) | 9 | -3 | -7 | -1 | -2.7 | -10 | 5082
CCCCN(Cc1ccccc1)S(=O)(=O)c1cc(Br)cc2c1N(C(C)=O)C(C)C2 (stereo not given) | -1 | -17 | 4 | -1 | 20 | -3 | 8411
O=C(c1ccccc1)N1CCN(C(=O)c2ccc3c(c2)OCO3)CC1 | -5 | 4 | -1 | 18 | 21 | -20 | 4167
O=C(CCNS(=O)(=O)c1ccc(Br)cc1)NCc1ccc(F)cc1 | 3 | 2 | 5 | 3 | -1.5 | -11 | 4940
CC(CC(=O)NC1CCCCC1)S(=O)(=O)c1ccc2c(c1)CCN2C(=O)C1CC1 (stereo not given) | 1 | 3 | -9 | -4 | -2.7 | -16 | 5620
COc1ccc2oc(C(=O)OCC(=O)Nc3cc(S(=O)(=O)N4CCOCC4)ccc3C)c(C)c2c1 | 4 | 14 | 8 | 4 | 5.2 | -19 | ?
CCC1(C)NC(=O)N(/N=C/c2ccc(C)s2)C1=O (stereo not given) | -8 | / | / | / | / | -16 | 3672
CCSc1nc2c(c(=O)[nH]1)C(c1ccncc1)C(C(=O)OC)=C(C)N2 (stereo not given) | 2 | 2 | 3 | 6 | 4.8 | -19 | 3884
COC(=O)Cn1c(SCc2ccccc2)nc2ccccc21 | 2 | 5 | / | / | 6.7 | -30 | 2056
O=C(COc1ccccc1-c1ccccc1)NN=Cc1cccnc1 | / | 8 | 15 | 6 | 7.0 | / | /
COc1ccc(OCC(=O)N(Cc2sccc2C)C2CCS(=O)(=O)C2)cc1 (stereo not given) | -11 | 9 | 16 | 2 | 2.1 | -16 | 5781
Cc1ccc(C(=O)NCC(=O)OC(C)C(=O)NC2CCCCC2C)cc1C (stereo not given) | -9 | -2 | 8 | -3 | 4.9 | -21 | 4972
Cc1cc2oc(C(=O)NCc3ccc(S(N)(=O)=O)cc3)c(C)c2cc1C | 1 | 6 | 2 | 1 | 4.3 | -16 | 3235
CCCN(CCC)C(=O)Cc1ccc(F)cc1 | -36 | -9 | -1 | 2 | -4.8 | -22 | 3397
NS(=O)(=O)c1cc2c(cc1C(F)(F)F)NCNS2(=O)=O | -4 | -2 | 6 | 1 | 6.5 | 2 | 5167
COc1ccccc1C=NNC(=O)c1cc2c(ccc3ccccc32)o1 | / | -4 | -3 | -7 | 2.6 | / | /
COc1cnc(SC)nc1Nc1ccc(C#N)cc1 | -15 | 4 | 5 | 7 | 5.5 | 20 | 3108
O=C(/C=C/c1ccc2c(c1)OCO2)Nc1nncs1 | -2 | -1 | 7 | 14 | 0.4 | / | 5124
CCc1nnc(NC(=O)c2ccc(N3C(=O)CCC3=O)cc2)s1 | -2 | 10 | 6 | 5 | 2.8 | -23 | 4179
CCNC(=S)N(CCCN(CC)CC)Cc1cc2cc3c(cc2[nH]c1=O)OCO3 | -3 | 3 | 2 | -4 | 3.3 | -13 | 3219
NNCc1cccc(O)c1 | -4 | 2 | 1 | 0 | 2.2 | -20 | 5714
Cc1cccc(C)c1-n1nnnc1-c1cnccc1C(F)(F)F | 5 | 2 | 9 | 8 | 5.0 | -7 | 4616
CCCOc1ccc(C(=O)Nc2cc(-c3nn4c(C)nnc4s3)ccc2C)cc1 | -4 | -10 | / | / | 1.8 | -21 | 4625
CCCCCC1CC1C(=O)NN=Cc1ccc(N(C)C)cc1 (stereo not given) | / | 1 | 4 | 10 | 2.0 | / | /
CCO[C@@H]1OC(C(N)=O)=C[C@H](c2ccc(C(F)(F)F)cc2)[C@H]1CCCO | -14 | / | / | / | / | -24 | 3523
CC=C(C)C(=O)OC1c2cc3c(c(OC)c2-c2c(cc(OC)c(OC)c2OC)C(OC(C)=O)C(C)C1C)OCO3 (stereo not given) | / | 18 | 6 | 5 | 17 | / | /
O=c1c2ccccc2c(=O)n(-c2ccccc2)n1CCCCBr | -9 | 9 | 8 | 2 | 4.9 | / | ?
Further compounds:
SMILES | BJeLR viability | Sa ugtP lethal | Mtb hypoxia rep | Mtb hypoxia rep growth | Sa RN4220 lethal | PrP 5UTR inh | Bead autofluor
COc1ccc(NC(=O)CNC(=O)c2nn(-c3ccc(OC)cc3OC)c(=O)c3ccccc23)c(OC)c1 | -3 | 6 | 1 | 10 | 3.7 | -13 | 4099
COc1ccc(C2CC=C(C(=O)O)C(c3ccc(Cl)cc3)N2S(=O)(=O)c2ccc(Cl)cc2)cc1 (stereo not given) | / | 23 | 4 | 8 | 20 | / | /
COCCN(C(=O)C1=COCCO1)c1c(N)n(CC(C)C)c(=O)[nH]c1=O | / | 4 | 7 | -2 | 3.7 | -14 | 3441
COc1ccccc1C(=O)Nc1cccc(NC(C)=O)c1 | -30 | -2 | 7 | 1 | 0.5 | -8 | 11790
COCC(C)N=C1NN=C(c2cccs2)C(CC(=O)O)S1 (stereo not given) | 1 | 5 | 2 | 0 | 6.8 | -9 | 4229
COc1cccc(CN(C)C(=O)CSCC(=O)Nc2ccc(C)cc2)c1OC | 7 | 10 | 14 | 2 | 2.5 | -17 | 5923
COc1ccc(NC(=O)c2cccnc2N2CCCCC2)cc1 | 3 | 6 | 13 | 13 | -7.6 | -19 | 2444
Cn1nnnc1SCC(=O)N1CCCCC1 | 0 | 7 | -3 | 6 | -2.2 | -10 | 4919
CC(NC(=O)C(=O)N1CCCCC1)C(c1cccs1)N1CCN(c2ccccc2)CC1 (stereo not given) | 7 | -1 | 3 | -5 | 1.0 | -18 | /
O=C(O)c1ccc(Cl)c(S(=O)(=O)N(Cc2ccccc2)c2ccc(F)cc2)c1 | 6 | 9 | -3 | -9 | 11 | -21 | 4194
CCc1ccc(N2C(=O)CC(N3CCN(c4ccccn4)CC3)C2=O)cc1 (stereo not given) | -4 | 12 | 13 | 2 | 4.1 | -14 | 4523
Oc1c(C(Nc2ccccn2)c2cccnc2)cc(Cl)c2cccnc12 (stereo not given) | 16 | -10 | 6 | 3 | 22 | -23 | 2161
COc1ccc(-n2c(-c3cc(-c4ccccc4)sc3N)n[nH]c2=S)cc1 | -6 | 7 | -1 | -5 | 4.6 | -4 | 4616
CN(C)CC1CCCCC1OC(=O)c1ccc(Cl)c(Cl)c1 (stereo not given) | 9 | 3 | 12 | 0 | 4.2 | -10 | 2427

Assay outcomes from PubChem.
